Compound activity as filed in PubChem BioAssay.
LANA-H2A inh: blocks KSHV LANA binding to histone H2A/H2B. Q9QR71. cell-free LANA-H2A/H2B peptide, fluorescence polarization. inhibition, % (test concentration not listed). 320,000 tested, 0.6% active; in the data active means inhibition mostly above about 10%, no sharp cut-off; inactive means mostly below about 6.7%;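 further: stock transfer was 7.5 nL into about 10 µL; 0% = median of vehicle wells and 100% = median of positive control wells; one replicate is shown; the record names a cut of 25% in any replicate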
Target sequence (Q9QR71 whole entry, looked up): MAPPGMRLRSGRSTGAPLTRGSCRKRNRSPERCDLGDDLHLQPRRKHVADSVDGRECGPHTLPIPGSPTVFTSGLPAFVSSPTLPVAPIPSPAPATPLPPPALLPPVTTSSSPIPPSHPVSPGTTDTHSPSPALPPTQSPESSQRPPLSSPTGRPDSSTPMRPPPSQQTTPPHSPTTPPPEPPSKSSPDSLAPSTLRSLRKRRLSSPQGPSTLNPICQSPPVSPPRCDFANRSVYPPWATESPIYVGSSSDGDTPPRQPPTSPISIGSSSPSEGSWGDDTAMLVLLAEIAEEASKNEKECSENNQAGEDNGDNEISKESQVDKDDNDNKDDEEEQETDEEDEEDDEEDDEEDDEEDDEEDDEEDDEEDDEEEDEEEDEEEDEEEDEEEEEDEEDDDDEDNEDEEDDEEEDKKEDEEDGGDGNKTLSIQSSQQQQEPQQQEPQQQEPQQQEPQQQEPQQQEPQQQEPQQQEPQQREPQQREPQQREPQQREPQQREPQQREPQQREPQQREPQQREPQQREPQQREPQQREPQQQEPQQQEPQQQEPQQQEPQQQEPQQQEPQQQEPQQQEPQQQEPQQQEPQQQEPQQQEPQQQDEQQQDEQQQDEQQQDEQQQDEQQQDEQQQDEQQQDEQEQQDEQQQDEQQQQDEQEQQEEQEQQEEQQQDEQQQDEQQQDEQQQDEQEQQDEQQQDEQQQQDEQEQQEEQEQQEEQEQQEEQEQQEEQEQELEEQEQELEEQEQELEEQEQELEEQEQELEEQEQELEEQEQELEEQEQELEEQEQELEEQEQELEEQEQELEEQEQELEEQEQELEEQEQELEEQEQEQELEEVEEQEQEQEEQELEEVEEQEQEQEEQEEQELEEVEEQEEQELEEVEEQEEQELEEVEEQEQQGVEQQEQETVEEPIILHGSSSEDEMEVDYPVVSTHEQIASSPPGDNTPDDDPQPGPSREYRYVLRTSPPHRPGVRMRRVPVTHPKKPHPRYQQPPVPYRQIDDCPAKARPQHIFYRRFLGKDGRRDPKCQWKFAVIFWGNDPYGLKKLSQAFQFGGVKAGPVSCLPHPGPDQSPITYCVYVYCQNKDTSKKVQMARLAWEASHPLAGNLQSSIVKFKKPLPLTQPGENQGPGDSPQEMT
HNF4A DNA FP: change in binding of human HNF4 alpha to DNA; P41235; HNF4a-FITC DNA binding, fluorescence polarization, 1 h; activity change, % at 10 µM; 360,000 tested, 0.3% active; AID 1224865; in the data active means activity change above about 30%, passing the limit was not always enough;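 further: controls were the assay level and a saturating level of protein; the project sought stronger binding though the title names inhibitors; some compounds called inactive have numbers as strong as hits; positive values seem to mean higher polarization but the record does not say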
A1 inh: inhibitors of the anti-apoptotic protein A1, read as caspase activation. 330,000 tested, 0.066% active. MEF A1-2A-BIM cells, Caspase-Glo 3/7 luminescence, 3 h; percent of clofoctol response, vehicle zero. caspase activation, % (test concentration not listed);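 active means over half of replicate activation scores above 10%, or exactly half above 10 with the replicate mean above 10; inconclusive means replicate mean below 10 yet half the replicates above 10; inactive means over half of replicates below 10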;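 further: wells of about 30 µL received 50 nL stock; many hits fall short of the cut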
Vif A3G: HIV-1 Vif–A3G interaction blockers – biochemical, TR-FRET, GST-Vif 1-94, biotin-A3G peptide, dose response retest, primary screen (AID 1117319) | TR-FRET GST-Vif / biotin-A3G peptide binding; higher % means a stronger effect; test concentration not given here; strong numbers were not always called active | 260,000 tested, 0.57% active | inhibition, %, or IC50 in µM where a hit was titrated;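 active means above the screen mean plus three standard deviations and confirmed in dose response; inconclusive means results disagree or hit not tested in dose response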;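 further: Vif residues 1-94 fused to GST binding biotinylated APOBEC3G peptide 110-148; 0% = full assay without inhibitor and 100% = GST in place of GST-Vif; retest series ran down from 100 µM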
UCH37 DUB inh: inhibitors of human deubiquitinating enzyme UCH37; Q9Y5K5; inhibition, % (concentration not given with the values); 330,000 tested, 0.33% active; purified proteasome/UCH37, Ub-AMC cleavage fluorescence; AID 588478;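 active means mean of two replicates above 20%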;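 further: 0% = compound-free wells with enzyme and 100% = wells lacking proteasome; stock transfer was 100 nL into about 20 µL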
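Material: human UCH37 enzyme supplied as purified proteasome complex. Measure: % inhibition of Ub-AMC cleavage fluorescence. Medium: pH 7.4 Tris-HCl (50 mM) with ovalbumin, ATP-MgCl2, DTT. Times: 30 min preincubation with enzyme, 25 min cleavage at room temperature. Detection: AMC fluorescence intensity at 355/460 nm.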
E coli growth: E. coli growth inhibition; Escherichia coli growth, OD600, 23 h; active compounds read low; OD600 absorbance (test concentration not listed); 330,000 tested, 0.21% active; AID 1053175;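 active means OD600 absorbance below the run mean of sample wells minus 3.6 SD, in any replicate, cut at about 0.56 in these data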;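 further: stock transfer was 300 nL into about 60 µL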
B2AR ag: activates human beta-2 adrenergic receptor causing internalization; P07550; Am2.2-beta2AR cells, FAP receptor internalization, flow cytometry; reference of the scale not given here; response, % (test concentration not listed); 340,000 tested, 0.43% active; AID 504454;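 active means response above a set limit, near 3 SD of response in nonfluorescent compounds, cut at about 42% in these data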;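 further: stock transfer was 100 nL into about 11 µL; a reference agonist was the positive control; negative values mostly stem from fluorescent compounds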
The depositor's hits bear a star; u = inconclusive; x = no result given.

SMILES	LANA-H2A inh	HNF4A DNA FP	A1 inh	Vif A3G	UCH37 DUB inh	E coli growth	B2AR ag
NC(=O)c1ccccc1N=Cc1ccc2ccccc2c1	-3.1	2.0	-6.0	-1.0%	-88.1	0.654	-17.3
CN1CCN(Cc2nc3c(c(=O)[nH]c(=O)n3C)n2CCc2ccccc2)CC1	-1.0	3.3	0.8	10.6%	3.4	0.773	-6.4
Cc1cc(=O)n(CC(=O)NCCN2CCOCC2)c2c1c(C)nn2-c1ccccc1	3.5	-2.0	0.1	-8.1%	0.7	0.679	0.4
CC(=O)CSc1ccc(-c2nc3ccccc3[nH]2)cn1	1.4	0.4	-10.1	x	-6.2	0.61	-1.9
COc1ccc(-n2cccc2/C=C/[N+](=O)[O-])cc1	x	7.2	-0.6	20.8%	-0.2	0.676	10.6
CCN(CC)S(=O)(=O)c1ccc(N2CCOCC2)c(NC(=O)c2ccc(=O)[nH]c2)c1	-1.6	-0.5	1.8	0.5%	0.7	0.666	3.5
Cc1cc(NC(=O)c2cccc(S(=O)(=O)N3CCCCC3)c2)no1	0.6	1.8	-1.4	x	-1.2	0.696	-14.7
Cc1ccc(/C=N/Nc2ccc(Cl)c(C(=O)O)c2)s1	3.1	-2.3	-8.5	0.3%	x	x	3.1
CCCn1cc(CN2CCC(n3nccc3NC(=O)c3ccc4c(c3)OCO4)CC2)c(C)n1	2.0	1.6	-0.3	x	4.3	0.659	-2.1
CCOC(=O)Cc1csc(NC(=O)CCCN2C(=O)c3ccccc3C2=O)n1	2.7	-2.6	0.1	0.0%	-0.6	0.731	5.8
CC[C@@H](C)CN1C(=O)N[C@@H](c2ccccc2)C(C(C)=O)=C1C	-0.1	32.0	0.1	x	3.3	x	-2.9
CCOC(=O)N1CCN(C(=O)c2cc(-c3ccncc3)nc3ccccc23)CC1	0.9	1.2	1.4	0.1%	2.9	0.66	-0.9
CCN(CC(=O)Nc1ccccc1OC)C(=O)c1ccc2[nH]c3c(c2c1)CC(C)CC3 (stereo unspecified)	-0.1	-0.2	0.4	-6.3%	-3.6	0.708	2.1
Cc1nnc(-c2ccc(Oc3ccc(C)c(C)c3)c([N+](=O)[O-])c2)o1	0.9	-2.2	0.6	x	2.6	0.727	-16.8
CCc1ccccc1NC(=S)N1CCN(c2cccc(OC)c2)CC1	-1.0	-1.5	0.7	0.4%	2.1	0.664	-7.2
COC(=O)c1c[nH]n2c(=O)c(Cl)c(C)nc12	-4.0	1.5	-6.2	1.3%	0.0	0.655	4.3
COc1cc(C(=O)C(=O)c2ccc(O)c(OC)c2)ccc1O	6.4	3.5	-0.3	3.3%	21.4*	0.684	4.5
COc1ccc(-n2nnnc2SCC(=O)Nc2nc3c(s2)CCCC3)cc1	-1.2	1.5	-0.5	2.9%	6.6	0.72	-3.4
O=C(NC12CC3CC(CC(C3)C1)C2)c1ccc(=O)oc1	-2.2	0.4	0.3	-0.9%	6.9	0.805	-9.8
CCC1=C(OC(=O)N(CC)CC)N2C(=O)OC(=NCCc3c[nH]c4ccccc34)[C@]2(Cc2ccccc2)[C@H]2C1=CC[C@H]1C(=O)N(C)C(=O)[C@H]12	-2.3	1.8	0.2	18.3%	4.4	x	5.6
Cc1ccc(CSc2nc3c(c(N(C)C)n2)CCCC3)cc1	6.3	5.4	1.1	70.4%	0.8	0.69	-5.0
Cc1cc(NC(=O)CSc2nc3c([nH]c4ccccc43)c(=O)n2-c2ccccc2F)no1	-4.1	1.0	-0.5	x	0.4	0.72	5.7
O=c1[nH]cnc2nc(-c3ccccc3)c(-c3ccccc3)nc12	9.8	-0.7	0.0	16.4%	-469.3	0.699	-5.0
O=C(NCc1ccccc1Cl)c1cc2ccccc2oc1=O	-6.1	2.0	0.7	-2.3%	6.2	0.648	-1.0
COc1ccc2oc(C(=O)N(C)CCOc3ccccc3)c(C)c2c1	-0.4	2.1	-0.5	x	-1.5	0.67	1.4
COc1ccc(CC(=O)N/N=C(\C)CC(=O)Nc2ccc3c(c2)OCCO3)cc1OC	-4.4	3.1	-0.1	x	x	x	-2.5
CN(C)CCCNC(=S)N1CCN(c2nc(-c3ccccc3)cs2)CC1	-0.3	1.2	-0.4	-0.3%	4.9	0.682	3.6
CC1(C)Cc2cccc(OCC(=O)OCC(=O)Nc3ccc(C(N)=O)cc3)c2O1	7.0	-1.1	0.9	1.5%	1.1	0.671	-5.1
COC(=O)c1cc(NC(=O)Cc2ccccc2[N+](=O)[O-])cc(C(=O)OC)c1	-1.4	-1.9	1.7	1.2%	2.0	0.693	-3.6
Cc1cccc(N2CCN(C(=O)CNC(=O)c3ccccc3)CC2)c1C	-0.7	1.0	0.9	x	3.6	0.669	7.4
COc1ccc(-c2oc(=O)c3cc(OC)c(OC)cc3c2C#CC2(O)CCCCC2)cc1	2.1	5.0	-3.1	x	-24.4	0.755	-1.5
O=C(Cn1nc(-c2ccc(Cl)cc2)ccc1=O)NCC1CCCO1 (stereo unspecified)	3.1	3.5	0.8	17.0%	2.1	0.745	-2.6
COc1ccc(N2CCN(C(=O)c3ccc(CNS(=O)(=O)c4cccc(OC)c4)cc3)CC2)cc1	4.3	1.3	1.1	x	0.1	0.73	8.8
OC(CCN1CC2CCC(CC2)C1)(Cc1ccccc1)c1ccco1 (stereo unspecified)	x	3.4	x	11.5%	0.9	0.654	6.4
CCn1cc(C(=O)NCc2ccco2)c(=O)c2cc(S(=O)(=O)N3CC(C)CC(C)C3)ccc21 (stereo unspecified)	-3.2	1.8	-0.2	-2.1%	5.2	0.704	-5.7
COc1ccc(C2CCCN2C(=S)Nc2ccccc2C)cc1OC (stereo unspecified)	-4.7	-0.2	0.1	16.3%	3.3	0.692	0.5
CC(=O)c1c(C)cc(C)c(CSc2nnc(-c3ccco3)o2)c1C	-6.0	2.1	-0.2	-1.4%	0.7	0.677	-2.1
CCOc1ccc(N(Cc2cc3cc(C)ccc3[nH]c2=O)S(=O)(=O)c2ccccc2)cc1	-3.8	1.2	0.0	x	-5.2	0.696	-7.2
Cc1ccccc1OCCC(=O)OCC(=O)Nc1c(C)nn(-c2ccccc2)c1C	-9.5	-1.1	-0.2	0.0%	2.6	0.668	-4.1
O=C1c2ccccc2-c2nc3ccccc3nc21	2.1	-0.1	-2.5	6.8%	44.8*	0.698	-8.4
CN(C)c1cccc(C(=O)OCC(=O)N2CCc3ccccc3C2)c1	-0.8	6.5	0.9	x	-51.8	0.645	0.6
COc1ccc(-c2nc(CS(=O)(=O)CC(=O)NC3CCC(C)CC3)c(C)o2)cc1 (stereo unspecified)	-3.6	2.9	-0.6	x	0.5	0.709	-4.7
O=C1N(Cc2cccc(Cl)c2)C[C@@H]2C[C@@H](c3ccc4nonc4c3)N3CCC[C@@]123	-0.2	4.0	-0.5	-7.3%	0.8	0.641	2.8
CCN(C1CCCCC1)S(=O)(=O)c1ccc(-n2cnnn2)c(C)c1	1.5	0.8	-0.2	x	3.2	0.666	-1.6
O=C(Cc1cccs1)N(c1ccc(F)cc1)C1(C(=O)NC2CCCCC2)CCCC1	1.7	4.6	1.3	3.2%	2.6	0.671	-0.8
O=C(CCCn1c(=O)[nH]c2cc(Cl)ccc2c1=O)NCCC1=CCCCC1	-0.1	-1.4	0.3	7.6%	2.7	0.745	-22.6
COc1ccc(CNC(=O)CSc2nc3[nH]ncc3c(=O)n2-c2ccccc2Br)cc1	-3.2	x	-0.2	1.3%	x	x	x
S=C(NCCc1ccccc1)NC1CC1	5.6	1.7	1.0	6.8%	0.8	0.656	-2.5
CCOc1ccc(C2C([N+](=O)[O-])=C(C)N(C)C(=O)N2C)cc1OC (stereo unspecified)	0.0	5.6	0.6	1.8%	8.0	0.614	1.1
CC1CCCCN1C(=S)NC(=O)c1cc(Br)ccc1Cl (stereo unspecified)	2.3	1.1	0.0	0.0%	-2.0	0.691	-4.5
OC(COc1ccccc1)CN1C2=NCCCN2c2ccccc21 (stereo unspecified)	6.1	1.7	0.1	0.9%	2.1	0.76	-9.3
CC(C)C[C@@H](CO)N1CCN(Cc2ccccc2)CCC1=O	4.6	-3.8	0.0	x	-2.5	x	1.5
C[C@H](CO)N1C[C@H](C)[C@@H](CN(C)C(=O)Nc2ccc(C(F)(F)F)cc2)Oc2ccc(NS(=O)(=O)c3ccc(F)cc3)cc2C1=O	6.2	1.5	-0.3	x	2.0	x	-6.8
O=C(Nc1ccc2c(c1)[nH]c(=O)c1ccccc12)C(F)(F)F	x	-9.2	x	-8.2%	x	x	2.1
COc1ccc2nc(NC(=O)c3ccccc3C(=O)O)sc2c1	-3.7	0.3	-1.2	x	0.4	0.685	6.6
CCn1cc(C(=O)NCC(OC)OC)c(=O)c2cc(S(=O)(=O)N3CCCC3)ccc21	-0.1	-3.1	-0.3	x	7.5	0.674	-0.1
N#CCCN(C(=O)COC(=O)c1nc(Cl)ccc1Cl)c1ccccc1	0.4	1.3	-0.3	-3.2%	2.4	0.714	-6.0
CCCNC(=O)c1c(C)cc(=O)oc1C	-1.9	0.9	0.9	0.6%	18.2	0.661	2.0
Cc1ccc2[nH]c(=O)c(CN(CCCN3CCOCC3)C(=O)Nc3ccc(Cl)cc3)cc2c1	-0.1	-2.7	0.1	-7.4%	4.4	0.646	11.0
O=C(Nc1ccccc1C(F)(F)F)Nc1cccc2ccccc12	-2.1	3.9	1.6	7.5%	4.1	0.694	-5.5
(listing goes on)
SMILES	LANA-H2A inh	HNF4A DNA FP	A1 inh	Vif A3G	UCH37 DUB inh	E coli growth	B2AR ag
O=C(CN1CCCCC1)N1c2ccccc2Sc2ccc(C(F)(F)F)cc21	0.8	-0.4	0.0	4.0%	5.0	0.694	1.5
CC(=O)C1=C(O)C(=O)N(c2ccc(C(=O)O)cc2)C1c1ccccc1 (stereo unspecified)	-5.6	2.1	0.8	5.0%	-2.8	0.691	-4.1
Cc1nn(C)c(C)c1S(=O)(=O)NC1CCCc2ccccc21 (stereo unspecified)	1.9	-2.7	-0.1	2.4%	-1.3	0.668	-2.1
Cn1c(SCC(=O)Nc2cc(C(C)(C)C)nn2-c2ccccc2)nc2ccccc21	0.4	-1.2	0.2	0.7%	6.4	0.644	-12.2
CCN1/C(=C2\C(=O)N(C)C(=S)N2C)C=Cc2cc(C)ccc21	0.9	-1.6	1.2	x	4.8	0.7	-3.0
CCSc1ncccc1C(=O)N[C@@H](CCSC)C(=O)OC	-2.5	0.4	2.0	-13.2%	2.9	0.617	2.8
CC1(C)Cc2ccccc2C(NNC(=O)c2ccncc2)=N1	0.4	1.3	1.8	-2.3%	8.8	0.717	-0.8
COc1ccc(-c2nc3ccc(C)cn3c2NCc2ccccc2)cc1SC1CCCCC1	0.3	3.7	u	x	-164.2	x	29.2
O=C(OCC#CCSc1nnc(-c2ccccc2)o1)c1cccs1	x	0.8	x	2.1%	2.8	0.697	6.8
CS(=O)(=O)Nc1ccccc1C(=O)Nc1ccccc1C(=O)N1CCCC1	1.5	-3.2	-0.1	x	-12.7	0.704	1.4
COc1c2occc2c(OC)c2c(=O)cc(C(F)(F)C(F)(F)F)oc12	-50.6	-3.8	0.3	21.2%	4.6	0.715	2.0
Cc1ccc(C(=O)Nc2ccccc2N2CCN(C(=O)C(C)C)CC2)cc1	3.2	-2.5	0.8	-6.1%	3.0	0.734	-0.6
CCc1ccc(NC(=O)C2CCCN(S(=O)(=O)c3cccnc3)C2)cc1 (stereo unspecified)	0.0	-1.0	-0.2	-4.0%	1.4	0.674	2.0
